Mtb growth: Mycobacterium tuberculosis H37Rv growth inhibition, cell based, confirmatory dose response (AID 1949); most inactive calls were filed without a number and no value below 0 was filed; inhibition, % at 10 µg/mL, or IC50 in µg/mL where a hit was titrated; actives 1.6% (n = 100,000);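 active means confirmed in a dose series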;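 further: bacteria grown 7 days with compound before Alamar blue readout; 0% = untreated bacteria and 100% = reference antibiotic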
* hit, by the source's call; i = inactive. This is a subset, so the mix of outcomes need not match the whole.

compound	Mtb growth
O=[N+]([O-])c1cccc2c(NS(=O)(=O)c3ccc(Br)cc3)cccc12	0%
COc1ccc(CC(=O)Nc2ccc(-c3nc4ccccc4c(=O)o3)cc2)cc1	15µg/mL*
CCc1c(C)sc(NC(=S)NCCc2ccc(OC)c(OC)c2)c1C(=O)OC	2%
O=C(COc1ccc(Cl)cc1Cl)Nc1sc2c(c1C(=O)NCc1ccco1)CCCC2	i
CC1CCc2c(sc3ncnc(SCC(=O)Nc4ccccc4)c23)C1 (stereo not drawn)	i
COC(=O)c1c(C)oc2ccc(OCC(=O)c3ccc(F)cc3)cc12	2%
CCOc1ccccc1NC(=O)COc1ccc(C(=O)Nc2cccc(Cl)c2C)cc1	i
C=CCn1c(SCC(=O)Nc2ccc(Br)cc2)nnc1-c1ccc([N+](=O)[O-])cc1	28%
CC(NC(=O)c1ccccc1OCc1ccccc1)c1ccccc1 (stereo not drawn)	7%
COc1ccc(N2CCN(C(=O)c3cc(-c4ccccn4)nc4ccc(Cl)cc34)CC2)cc1	1%
Cc1ccc(CN(c2ccc(C(=O)NCCSCc3ccccc3)cc2)S(C)(=O)=O)cc1	i
O=S(=O)(Nc1cccnc1)c1ccc(Cl)c2ccccc12	i
CCOP(=O)(OCC)/C(=C(\NC(=O)c1ccccc1)C(=O)Nc1ccccc1C(F)(F)F)c1ccccc1	i
C=CCn1c(SCC(=O)Nc2cccc(F)c2)nc2sc(C)cc2c1=O	9%
C=CCn1c(SCC(=O)Nc2cc(C(F)(F)F)ccc2Cl)nnc1-c1cc(Br)ccc1O	3%

(next part)
compound	Mtb growth
Cc1nc2c([nH]c3ccc(F)cc32)s1	i
Cc1cccc(OC(C)C(=O)NC2CCS(=O)(=O)C2)c1C (stereo not drawn)	i
Cc1ccc2c(c1)CCCN2C(=O)c1cc2ccccc2oc1=O	30%
CN1CCN(CC(=O)Nc2cccc([N+](=O)[O-])c2)CC1	i
O=C(Nc1nc(-c2cccc([N+](=O)[O-])c2)cs1)c1ccco1	i
CNS(=O)(=O)c1ccc(NC(=S)Nc2ccc3c(c2)OCO3)cc1	i
OC(COc1ccc2cc(Br)ccc2c1)CN1CCOCC1 (stereo not drawn)	8%
COc1ccc(-c2nnnn2CCc2ccccc2)cc1	i
CCOC(=O)c1c(-c2cccs2)csc1NC=O	i
CC(=O)c1cccc(NC(=O)C(C)NS(=O)(=O)c2ccc(Cl)cc2)c1 (stereo not drawn)	i
CCOc1ccccc1C(=O)Nc1nc2ccc(S(C)(=O)=O)cc2s1	i
CCOC(=O)c1ccccc1NC(=O)OC	i
CCC(NC(=O)NCc1cccnc1)(C(F)(F)F)C(F)(F)F	i
COC(=O)Cn1c2ccccc2c2nc(C)sc21	51%
Cc1ccc(N=C2N=C(N)c3ccccc32)cc1C	i

(continued)
compound	Mtb growth
COc1ccc(S(=O)(=O)N2CCC(C(=O)Nc3ccc(Oc4ccccc4)cc3)CC2)cc1	i
CCOc1ccccc1NC(=O)CN(Cc1ccc(Cl)cc1)S(=O)(=O)c1ccccc1	i
CCN(CC)c1ccc(NC(C)=O)c(C)c1	i
COc1c2c(c(OC)c3occc13)OC(O)(C(F)(F)F)CC2=O (stereo not drawn)	i
CCOc1cccc(C(=O)N2CCN(c3ccc([N+](=O)[O-])c(-n4nc(C)c5ccccc5c4=O)c3)CC2)c1	i
COc1ccccc1NC(=O)CC(C(=O)O)N(C)C (stereo not drawn)	6%
CCc1ccc(C(=S)Nc2ccccc2)nc1	2.2µg/mL*
O=C(CSCc1ccc([N+](=O)[O-])cc1)Nc1ccccc1	i
CCSc1ccccc1C(=O)Nc1nc2c(s1)C(=O)CC(C)(C)C2	i
COc1ccc2c(Cl)c(C(=O)NC(=S)Nc3ccc(S(=O)(=O)Nc4cc(OC)nc(OC)n4)cc3)sc2c1	i
CC1CCCCC1NC(=O)CSc1nnnn1-c1ccccc1 (stereo not drawn)	i
COc1cc(S(=O)(=O)N2c3ccccc3CC2C)c(OC)cc1Cl (stereo not drawn)	i
Cc1ccc(-c2nnc(SCC(=O)Nc3ccc(Br)c(C)c3)n2C)cc1	i
COc1cc(C2C3=C(CC(C)(C)CC3=O)Nc3[nH]n(-c4ccccc4)c(=O)c32)ccc1O (stereo not drawn)	i
O=C(OCc1cccc([N+](=O)[O-])c1)c1ccccc1C(=O)c1ccccc1	3%

Some of the entries so far, with each value named:
O=C(OCc1cccc([N+](=O)[O-])c1)c1ccccc1C(=O)c1ccccc1
  Mtb growth = 3%

CC(NC(=O)c1ccccc1OCc1ccccc1)c1ccccc1 (stereo not drawn)
  Mtb growth = 7%

CCN(CC)c1ccc(NC(C)=O)c(C)c1
  Mtb growth = i

C=CCn1c(SCC(=O)Nc2ccc(Br)cc2)nnc1-c1ccc([N+](=O)[O-])cc1
  Mtb growth = 28%

Next entries follow:
compound	Mtb growth
Cc1cc(Cl)ccc1OCC(=O)Oc1ccc(Br)cc1Cl	i
O=c1[nH]c(C(F)(F)F)nc2ccccc12	i
COc1ccc(C2(C(=O)Nc3ccc(Cl)c(Cl)c3)CCCC2)cc1OC	i
Cc1csc(NC(=O)CSc2nnc(-c3cc4ccccc4o3)n2C)n1	i
COC(=O)c1ccccc1NC(=O)Cn1nnc(-c2ccc(SC)cc2)n1	1%
Cc1noc(C)c1CSc1nc2ccccc2[nH]1	i
O=C(NCCOc1ccccc1)C(=O)c1c[nH]c2ccccc12	i
COc1ccc(C2CC(c3ccc(F)cc3)=NN2C(C)=O)cc1 (stereo not drawn)	i
CC1(C)CC(=O)c2cc(C#N)c(SCC(N)=O)nc2C1	i
CCCCOc1ccc2c(C)c(CCC(=O)OCC)c(=O)oc2c1C	8%
CCOc1ccc(-c2nnc(SCC(=O)O)n2-c2ccccc2)cc1	i
CC1=C(C(=O)OCc2ccccc2)C(c2sccc2C)NC(=O)N1 (stereo not drawn)	1%
O=C(Nc1cccc2ccccc12)C1(c2ccccc2)CC1(Cl)Cl (stereo not drawn)	i
CCOc1ccccc1N1CCN(C(=O)CC(c2ccccc2)c2ccccc2)CC1	2%
CNc1nc(N)c(C(=O)C(C)(C)C)s1	i

Single entries from the entries so far:
Mtb growth, CCc1c(C)sc(NC(=S)NCCc2ccc(OC)c(OC)c2)c1C(=O)OC stands at 2%
Mtb growth, COc1ccc(CC(=O)Nc2ccc(-c3nc4ccccc4c(=O)o3)cc2)cc1 stands at 15µg/mL*

Later entries:
smiles,Mtb growth
N#Cc1sc2nc(N3CCCCC3)c3c(c2c1N)CCCC3,i
O=C(NCc1ccncc1)C(=O)Nc1cccc(Cl)c1Cl,i
COCC(=O)Nc1nc(-c2ccccc2)c(C)s1,i
O=[N+]([O-])c1ccc(S(=O)(=O)Nc2ccc(S(=O)(=O)NCCc3ccccc3)cc2)cc1,i
CC(=O)Oc1ccc(N(C(C)=O)S(=O)(=O)c2ccc(C)c([N+](=O)[O-])c2)cc1,i
CC(NC(=O)C1CCCCC1)c1ccc(Br)cc1 (stereo not drawn),i
Cc1ccc(S(=O)(=O)N(CC(=O)Nc2ccc(F)cc2)Cc2ccc(Cl)cc2)cc1,5%
C=CCSc1nnc(NC(=O)c2cccc(S(=O)(=O)N3CCOCC3)c2)s1,i

Brought forward from above: two entries, followed by the next part.
smiles,Mtb growth
Cc1ccc(S(=O)(=O)N(CC(=O)Nc2ccc(F)cc2)Cc2ccc(Cl)cc2)cc1,5%
C=CCSc1nnc(NC(=O)c2cccc(S(=O)(=O)N3CCOCC3)c2)s1,i
C=CCNCCCOc1ccc(Cl)cc1Br,i
COC(=O)c1ccc(Nc2ncnc3sc(C)c(C)c23)cc1,i
O=C(Nc1ccc2oc(-c3ccccc3F)nc2c1)c1cccc(Cl)c1,i
OC(COc1ccc2c(c1)CCC2)COc1ccc2c(c1)CCC2,0%
CC(NC(=O)Nc1ccc(F)cc1F)C1CCCO1 (stereo not drawn),2%
CC(C)OCC(O)CN1CCN(Cc2ccccc2)CC1 (stereo not drawn),i
COc1ccc(Cl)cc1NC(=S)Nc1c(C)nn(Cc2c(F)cccc2Cl)c1C,i
COc1ccccc1NC(=S)Nc1ccccc1F,i

The results go on:
smiles,Mtb growth
CCOC(=O)c1ccc(NC(=O)CCC2CCCC2)cc1,6%
Cc1ccc(S(=O)(=O)NC2c3cccc4cccc(c34)C2Sc2nnc(N)s2)cc1 (stereo not drawn),4%
CCCCC(=O)Nc1sc2c(c1C#N)CCCC2,1%
COc1ccc(Cl)cc1-n1c(-c2ccncc2)n[nH]c1=S,i
COc1cccc(C(=O)N2CCN(C(=O)COc3ccc4ccccc4c3)CC2)c1OC,1%
O=C(COc1ccc(Cl)cc1Cl)N1CCN(c2cccc(C(F)(F)F)c2)CC1,4%
CCOc1ccccc1NC(=O)COc1ccc(S(=O)(=O)NC(C)c2ccccc2)cc1 (stereo not drawn),i
CCOc1ccc(S(=O)(=O)NC(c2ccccc2)c2ccccc2)cc1,i

Next compounds.
smiles,Mtb growth
CCCCCC(=O)Nc1ccc(N2CCN(S(C)(=O)=O)CC2)cc1,i
Cc1sc2[nH]c(=S)n(C/C=C/c3ccccc3)c(=O)c2c1C,3%
O=C(COc1ccc(S(=O)(=O)NC2CCCCC2)cc1)NCc1ccccc1,i
Cc1noc(C)c1CSc1ccc2ccccc2n1,i
CCCCn1c(NCc2ccc(N(CC)CC)cc2)nc2ccccc21,11µg/mL*
COc1cc(C(=O)Nc2ccc(F)cc2)cc(I)c1OC,i
COC(=O)c1ccccc1NC(=O)NNC(=O)c1csc2ccccc12,i
NS(=O)(=O)c1ccc(NC(=S)NC(=O)c2ccccc2Cl)cc1,i

More records.
smiles,Mtb growth
CCC(C(=O)N1CCN(S(C)(=O)=O)CC1)c1ccccc1 (stereo not drawn),i
O=C(c1ccc(Br)cc1)N1CCN(c2ccc(Cl)cc2)CC1,i
Clc1ccccc1CSc1ncccn1,5%
O=C(COc1ccc(S(=O)(=O)NCc2ccccc2)cc1Cl)NCCC1=CCCCC1,i
O=C(COc1ccc2ccccc2c1Br)NCCN1CCOCC1,i
O=C(Nc1nc(-c2ccc([N+](=O)[O-])cc2)cs1)C12CC3CC(CC(C3)C1)C2,i
N#CC1=C(SCc2cccc3ccccc23)NC(=O)CC1c1ccc(F)cc1 (stereo not drawn),i
CCc1cc(-c2[nH]ncc2Oc2ccc(-c3ccccc3)cc2)c(O)cc1OC,i

The results go on:
smiles,Mtb growth
Cc1c(Cl)cccc1NC(=S)NCCc1ccc(S(N)(=O)=O)cc1,i
CC1(C)CC(=O)C2=C(C1)N(Cc1ccccc1Cl)C(=O)C2(NC(=O)C(C)(C)C)C(F)(F)F (stereo not drawn),i
CCCOc1ccc(-c2csc3ncn(Cc4ccc(C(=O)O)cc4)c(=O)c23)cc1,1%
COc1cccc(C2=NN(C(=O)c3cccs3)C(c3cccs3)C2)c1 (stereo not drawn),6%
O=C(COc1ccccc1)Nc1cc(C(F)(F)F)ccc1N1CCCCC1,i
COc1ccc(NC(=O)CN(c2cccc3ccccc23)S(C)(=O)=O)cc1OC,i
CCCN1C(=O)c2ccccc2NC1c1ccc(Cl)c(Cl)c1 (stereo not drawn),i
CCOc1ccc(Nc2nc3c(c(=O)[nH]2)CCCC3)cc1,i

Remaining list, next part.
smiles,Mtb growth
CCN(CC)c1ccc(NC(=O)c2cccc(F)c2)cc1,i
CCOC(=O)C(=O)Nc1ccc(OCC(C)C)cc1,i
CCC12CN3CC(CC)(CN(C1)C3c1ccc(Br)cc1)C2=O (stereo not drawn),i
COc1cc(C2C(C(=O)N3CCCCC3)=C(C)NC3=C2C(=O)CCC3)ccc1OC(C)=O (stereo not drawn),i
O=C(CSc1nnc(-c2ccc(Cl)cc2Cl)o1)Nc1cccc([N+](=O)[O-])c1,i
COCC(=O)Nc1ccccc1C(=O)Nc1ccc(OC)cc1,i
Cc1ccc(S(=O)(=O)N(CC(=O)Nc2cccc(F)c2)c2cccc(Br)c2)cc1,i
OC(COc1ccccc1Cl)CN1CCN(C(c2ccccc2)c2ccccc2)CC1 (stereo not drawn),2.5µg/mL*

Later entries:
smiles,Mtb growth
CN(Cc1ccccc1)c1oc(COc2ccccc2F)nc1C#N,i
Cc1cccc(C)c1NC(=O)c1cccc(C)c1[N+](=O)[O-],i
CCc1ccccc1NC(=O)c1cnn2cc(Br)cnc12,i
CCOC(=O)c1c(NC(=O)C(=O)NCc2ccccc2)sc2c1CC(C)(C)OC2,6%
CCOC(=O)C1CCCN(C2CC(=O)N(c3ccc(Cl)c(Cl)c3)C2=O)C1 (stereo not drawn),i
Cc1ccc(C2CC(c3cc(Br)ccc3O)=NN2)cc1 (stereo not drawn),3.5µg/mL*
CC1CCc2ccccc2N1C(=O)c1ccc(Cl)cc1Cl (stereo not drawn),1%
O=C(NCCN1Cc2ccccc2C1=O)c1ccc(Cl)cc1,i

Carrying on.
smiles,Mtb growth
O=C(NCC1CCCO1)c1ccc(COc2ccc(Cl)cc2)cc1 (stereo not drawn),1%
CNS(=O)(=O)c1ccc(NC(=O)Nc2cc(OC)ccc2OC)cc1,i
Cn1nnc2cc(NC(=O)N3CCOCC3)ccc21,i
CCC(CC)C(=O)N1CCCCC1CC (stereo not drawn),i
COCCCNCCOCCOc1cc(C)ccc1C(C)(C)C,i
CCC(=O)Nc1ccc(Cl)c(NC(=O)C(c2ccccc2)c2ccccc2)c1,i
CC(NC(=O)C(=O)NCCc1ccc(Cl)cc1)c1ccccc1 (stereo not drawn),6%
CCN1C(=O)CC(N2CCN(c3cccc(OC)c3)CC2)C1=O (stereo not drawn),i
Cc1c(Cl)cccc1Nc1c2c(nc3ccccc13)CCC2,0%
O=C(CSCc1ccccc1)Nc1ccc(NC(=O)c2ccco2)cc1,15%
CCOc1ccc2nc(NC(=O)CSc3nc(C)cc(=O)[nH]3)sc2c1,i
